Bioassay records deposited in PubChem BioAssay by SRMLSC.
H5N1 antiviral: antiviral screen in MDCK cells, H5N1 avian flu; 0.07% of 96,000 active; AID 740; inhibition, % at 50 µM; cytopathic effect, luminescence, 72 h; stronger effect = higher value; no value below 0 was filed and about half of the inactive calls have no number; reference of the scale not given here; in the data active = inhibition above about 25%
* hit, by the source's call; i = inactive. An excerpt. The share of hits here may be higher or lower than overall.

SMILES	H5N1 antiviral
CCOC(=O)C1CCN(C(=S)Nc2cc(OC)c(OC)cc2C(=O)OC)CC1	i
Cc1cc(-n2nc(C)cc2C)n2nc(C)c(-c3ccccc3)c2n1	1.9
CCC(C)n1c(SCC(=O)Nc2cc(C)on2)nc2ccccc2c1=O (stereo not drawn)	i
Clc1ccc(-c2csc(N3CCN(c4ccccc4)CC3)n2)cc1	0.4
N#C/C(=C/c1ccc(F)cc1)c1nc(CCN2C(=O)c3ccccc3C2=O)cs1	0.1
Cc1ccc(-c2nnc(C)c(N3CC(C)OC(C)C3)n2)cc1 (stereo not drawn)	0.8
COc1ccc(-c2cn3c(C)c(C(=O)Nc4ccncc4)sc3n2)cc1	1.9
COc1cc(C2CC(=O)c3cnc(N4CCN(Cc5ccccc5)CC4)nc3C2)cc(OC)c1OC (stereo not drawn)	0.1
Cc1ccc2[nH]c(=O)c(CN(CC3CCCO3)S(=O)(=O)c3c(C)ccc4nsnc34)cc2c1 (stereo not drawn)	i
CC(=O)c1ccc(OCC(O)COc2ccc(C(C)=O)cc2)cc1	1.3
CCn1c(=O)c(C(=O)Nn2c(C)nc3ccccc3c2=O)c(O)c2ccccc21	i
O=S(=O)(NCCOc1cccc2cccnc12)c1ccc(F)cc1	0.8
Cc1ccc(NC(=O)CS(=O)Cc2nc(-c3ccc(C)cc3)oc2C)cc1 (stereo not drawn)	i
COc1cccc(Cn2cnc3c(NS(=O)(=O)c4cc(Cl)ccc4Cl)c(C)c(C)cc32)c1	i
CCOC(=O)Cc1csc(NC(=O)COc2ccccc2OCC)n1	3.5
COc1cccc2c1OC1(C)CC2NC(=O)N1 (stereo not drawn)	i
Cc1ccc2cc(C(c3nnnn3C3CCCC3)N3CCOCC3)c(=O)[nH]c2c1C (stereo not drawn)	1.1
COc1ccccc1N1CCN(CCCC(=O)c2ccc(F)cc2)CC1	0.1
Cc1[nH]c2ccccc2c1CC(=O)O	i
CN1CCN(S(=O)(=O)c2ccc(N(C)Cc3cccs3)nc2)CC1	i
Nc1c(-c2ccc(Cl)cc2)cnc2ncnn12	i
CC(c1ccc(Br)cc1)N1CC23C=CC(O2)C(C(=O)O)C3C1=O (stereo not drawn)	0.8
Cc1cc(NC(=O)COC(=O)CSCc2ccc(Cl)c(Cl)c2)no1	i
C=CCNC(=O)c1ccccc1NS(=O)(=O)c1ccc(SC)cc1	i
Nc1ccc(-n2nnnc2-c2ccco2)cc1	0.2
CC(NC(=O)c1ccc(CS(=O)(=O)Cc2ccccc2F)o1)c1ccc2c(c1)OCCO2 (stereo not drawn)	0.2
CCC(NC(=O)Nc1cc(OC)c(OC)c(OC)c1)(C(F)(F)F)C(F)(F)F	0.3
COC(=O)c1ccc(CSc2ccc3nnc(-c4cccc(F)c4)n3n2)o1	13.1
CCN(CC)S(=O)(=O)c1cccc(C(=O)NCCCN2CCOCC2)c1	0.7
CCOC(=O)c1snc2c(=O)[nH]cnc12	i
Cc1ccc(S(=O)(=O)N2CCCC2)cc1S(=O)(=O)N1CCCC1	1.2
CC(=O)NC1CC2CCCC(C1)N2CC(=O)N1CCCc2ccccc21 (stereo not drawn)	i
N#CC1=C(N)NC(SCc2ccc(Cl)cc2)=C(C#N)C12CCCCC2	9.2
COCCCNC(=O)c1ccc(CS(=O)(=O)Cc2cccc(C)c2)o1	i
CN1CCN(NC(=O)c2ccc(Cl)c([N+](=O)[O-])c2)CC1	i
O=C(/C=C/c1ccc(Cl)cc1)NCCSc1ccccc1	i
NC(=O)c1ccsc1NC(=O)c1ccco1	1.6
Brc1cccc(-c2nnc(-c3ccccc3)o2)c1	0.0
Cc1nc(N2CCOCC2)c(C#N)c2c1COC(C)(C)C2	i
Cc1cc(F)ccc1NCc1cc2c(cc1[N+](=O)[O-])OCO2	0.2
Cc1cc(C)c(NC(=O)CN(C2CCCCC2)C2CCCCC2)c(C)c1	0.0
CCOC(=O)/C(CCCN(CC)CC)=N\O	i
Cc1[nH]c2c(C)cccc2c(=O)c1Br	1.9
Cc1ccccc1NC(=S)NC(NC(=O)N(C)C)C(Cl)(Cl)Cl (stereo not drawn)	i
COc1cc(Cn2c(N)c(C(=O)NCc3ccco3)c3nc4ccccc4nc32)cc(OC)c1OC	1.5
CCCCn1c(SCC(=O)NC(C)CC)nc2ccc(N3CCOCC3)cc2c1=O (stereo not drawn)	i
O=C1CSC(c2ccc(Cl)cc2)N1 (stereo not drawn)	i
Cc1ccc(Cn2c(CN3CCN(C(=O)c4ccco4)CC3)nc3c2c(=O)n(C)c(=O)n3C)cc1	7.0
CCOC(=O)c1cccc(NC(=O)CSc2nnnn2CC)c1	0.2
COc1ccc(-c2csc(=Nc3c(C)n(C)n(-c4ccccc4)c3=O)n2C(C)(C)C)cc1	i

Given with each value named: entries from further up.
COc1cc(Cn2c(N)c(C(=O)NCc3ccco3)c3nc4ccccc4nc32)cc(OC)c1OC
  H5N1 antiviral: 1.5
COC(=O)c1ccc(CSc2ccc3nnc(-c4cccc(F)c4)n3n2)o1
  H5N1 antiviral: 13.1
NC(=O)c1ccsc1NC(=O)c1ccco1
  H5N1 antiviral: 1.6

(cont.)
SMILES	H5N1 antiviral
Nc1nc(SCC(=O)NCCCO)nc2sc3c(c12)CCC3	1.2
C=Cn1c(P(=S)(N2CCOCC2)N2CCOCC2)cc2c1CCCC2	0.1
O=C(Cn1nc(Cc2cccnc2)c2ccccc2c1=O)N1CCN(c2ccccn2)CC1	2.5
CC(C)c1cc(C(N)=O)c(NC(=O)c2cccc(COc3ccc(Br)cc3)c2)s1	i
Clc1ccc(CSc2nnc(-c3c[nH]c4ccccc34)o2)cc1	1.2
O=S(=O)(NCc1cccnc1)c1cccc2cccnc12	0.7
CC(=O)Nc1cccc(N(C)S(C)(=O)=O)c1	1.3
COc1ccc(CCNC(=O)CCn2c(SCC#N)nc3ccccc3c2=O)cc1OC	4.8
CC(Cc1cccs1)NC(=O)Nc1ccccc1 (stereo not drawn)	1.0
CCCCCn1c(-c2ccco2)nc2nc3ccccc3nc21	i
COc1ccc(Nc2cc(C(=O)NCCCN3CCOCC3)c3ccccc3n2)cc1OC	i
Cc1cc(C)c(S(=O)(=O)N2CCN(c3ccc([N+](=O)[O-])c(-n4nc(C)cc4C)c3)CC2)c(C)c1	1.0
CC1CCCN(c2c([N+](=O)[O-])c(=O)oc3ccccc23)C1 (stereo not drawn)	1.0
CCCCc1nc2ccccc2c(=O)n1-c1ccccc1[N+](=O)[O-]	i
CCOC(=O)c1c(C)c(C(=O)O)n(C)c1C	i
CCCn1c(SCC(=O)Nc2ccc(OC)cc2)nnc1-c1ccncc1	i
COc1ccc(CNC(=O)C2CC(c3ccc(OC)cc3)=NO2)cc1 (stereo not drawn)	i
Cc1ccc(C(=O)CSc2nnc(-c3cccnc3)n2N)cc1	3.1
COC(=O)c1ccccc1S(=O)(=O)N(Cc1cc2cc3c(cc2[nH]c1=O)OCO3)C1CCCCC1	i
Cn1c(CNc2ccccc2)nc2ccccc21	i
Cc1noc(C(=O)Nc2c(C)nn(Cc3ccccc3)c2C)c1Cl	i
Cc1nc(-c2ccccc2)sc1-c1nc(-c2ccccc2)ncc1S(=O)(=O)c1ccccc1	0.4
Cc1cc(=O)n(C)c(=O)n1CC(=O)N1CCCCCC1	1.8
COCCCNC(=S)NCCCNc1nc2cc3c(cc2cc1C#N)OCO3	1.2
Cc1ccc(-c2nnc3ccc(SCC(=O)N4CCc5ccccc54)nn23)cc1	2.1

4 of the compounds above, with each value named.
Cc1ccc(C(=O)CSc2nnc(-c3cccnc3)n2N)cc1
  H5N1 antiviral: 3.1
O=S(=O)(NCc1cccnc1)c1cccc2cccnc12
  H5N1 antiviral: 0.7
COCCCNC(=S)NCCCNc1nc2cc3c(cc2cc1C#N)OCO3
  H5N1 antiviral: 1.2
CCCCc1nc2ccccc2c(=O)n1-c1ccccc1[N+](=O)[O-]
  H5N1 antiviral: i

Later entries
SMILES	H5N1 antiviral
Cc1cccc(N2CSC3=C(C#N)C(c4ccc(C)o4)CC(=O)N3C2)c1 (stereo not drawn)	0.8
CCCCCc1c(C)nc(N2CCc3ccccc3C2)[nH]c1=O	0.4
O=C(Nc1cnn(Cc2ccc(Cl)cc2)c1)c1ccc([N+](=O)[O-])cc1	i
COc1ccc(OC)c(-n2nnnc2SCC(=O)Nc2nc(C)c(C)s2)c1	1.7
CN(C(=O)COC(=O)COc1ccccc1F)C1CCS(=O)(=O)C1 (stereo not drawn)	0.3
COc1ccc2c(C)cc(SCC(=O)Nc3c(C)n(C)n(-c4ccccc4)c3=O)nc2c1	0.8
O=C(Cn1nnc(-c2ccccc2)n1)OC1CCOC1=O (stereo not drawn)	i
Cc1cccc2nc(CSc3nnc4ccccn34)cn12	1.4
CC(NC(=O)C1CCC(=O)N1Cc1ccc(F)cc1)c1ccc2c(c1)OCCO2 (stereo not drawn)	0.8
O=C(NCc1ccccn1)Nc1cccc(NC(=O)NCc2ccccn2)c1	0.8
O=C(O)CCc1nc(-c2ccccc2Cl)no1	0.3
COc1nc(OC)nc(N2CCC(C(=O)NCc3ccco3)CC2)n1	0.3
CCCC1(C(=O)OC)NC(c2ccc(OC)c(OC)c2)C2C(=O)N(c3ccc4c(c3)OCO4)C(=O)C21 (stereo not drawn)	i
Cc1ccc(-c2nc3cc(NC(=O)C(C)C)ccc3o2)cc1	1.0
O=C(NCCc1cccs1)C1CC(c2c(Cl)cccc2Cl)=NO1 (stereo not drawn)	2.1
CN1CCN(c2ccc([N+](=O)[O-])cc2NC(=O)c2ccccc2Cl)CC1	i
CCCOC(=O)C(C)n1cnc2sc(C)c(C)c2c1=O (stereo not drawn)	0.2
O=C(NC1CC2CCC(C1)N2C(=O)NCc1ccccc1)NC12CC3CC(CC(C3)C1)C2 (stereo not drawn)	0.6
c1ccc2c(c1)CCCN2c1nc2ccccc2n2cnnc12	3.1
O=C(CN1CCOCC1)NCCC12CC3CC(CC(C3)C1)C2	1.4
COc1ccc(N2CCN(C(=O)CN(Cc3ccccc3)S(C)(=O)=O)CC2)cc1	1.1
CCc1ccc(C2NC(C(=O)O)CS2)cc1 (stereo not drawn)	i
COc1cccc(NC(=O)CCCn2c(=S)[nH]c3ccccc3c2=O)c1	0.9
CC(C)COC(=O)C(C#N)c1nc2ccccc2nc1N1CCN(Cc2ccccc2)CC1 (stereo not drawn)	i
CCN(CC)C(=O)Nc1ccc(C(=O)OC)cc1	0.2
O=C(NC1CCCCC1)C(c1ccco1)N(C(=O)c1csnn1)C1CCCC1 (stereo not drawn)	i
CC(=O)c1cnc2c(C(=O)O)cnn2c1C	i
Cn1c(/N=C/c2c[nH]c3ccccc23)nc2ccccc21	0.6
COc1ccc(C2C(C#N)=C(N)Oc3cc4c(cc32)OCO4)cc1 (stereo not drawn)	0.9
CNC(=O)N1CCN(C(=O)NC)CC1	i
O=C(NC1CCCCC1)N1CCN(CCc2ccccc2)CC1	i
N#CCCN1CCN(C(=S)c2ccc(-c3ccc(Cl)c(Cl)c3)o2)CC1	i
Cc1cc2c(c(SCC(=O)NCCc3ccccc3)n1)C(=O)OC2	i
C=CC(O)(C#CCN(CC)CC)c1ccccc1 (stereo not drawn)	0.1
Cc1c(Cc2ccccc2)sc(N)c1C(N)=O	i
Cc1ccc(NC(=O)CN(C)C(=O)CSc2nncn2C)cc1	i
CNC(=O)CCn1nc(-c2ccccc2)c2ccccc2c1=O	0.8
CCCCSC1=C(C#N)C(c2ccccc2C)CC(=O)N1 (stereo not drawn)	i
O=C(CCCN1C(=O)c2cccnc2C1=O)N1CC(=O)N(CCc2ccccc2)C(=O)C1	i
C=CCn1c(-c2ccc(N)cc2)nc2ccccc21	0.0
Cc1cc(N2CCOCC2)nc2cc(O)ccc12	2.0
Cc1c(Cl)cccc1NC(=O)Cn1cccc1	i
Cc1ccc(N2C(=O)CC(N(CCc3ccccc3)C(=S)Nc3ccc(N(C)C)cc3)C2=O)cc1 (stereo not drawn)	i
CCCc1cc(C(=O)NCc2ccccc2)no1	i
COCCN(Cc1cc2cc(C)ccc2nc1Cl)C(=O)Nc1ccccc1C	i
O=C(CSc1nnc(COc2cccc3cccnc23)o1)N1CCc2ccccc21	0.2
Cc1cc(C)c(OCCCCNCc2ccccc2)c(Cl)c1	i
O=C1Nc2cc(C(=O)N3CCOCC3)ccc2SC1N1CCOCC1 (stereo not drawn)	2.2
O=C(NNC1=NCCCCC1)c1ccccc1	0.8
CC(=O)Nc1ccc(C(=O)c2ccccc2)cc1	0.1

Later entries
SMILES	H5N1 antiviral
COc1ccccc1C(=O)OCCN1CCOCC1	i
Cn1c(=S)n(/N=C/c2ccc3c(c2)OCO3)c2ccccc21	i
Cc1nn(Cc2ccc(C(=O)Nc3nccs3)cc2)c(C)c1Cl	i
O=C(NCCCN1CCN(CCCNC(=O)c2ccc3c(c2)OCO3)CC1)c1ccc2c(c1)OCO2	0.8
CCOC(=O)c1cnn2c(C)cc(-c3ccc(F)cc3)nc12	i
O/N=C(\c1ccc2c(c1)OCCO2)C1CCCCC1	i
O=C(NNC(=S)NCc1ccco1)c1ccc(Cl)s1	0.1
C/C(=N\OC(=O)c1cccc(C)c1)c1sc(-c2ccccc2)nc1C	i
Cc1noc(C)c1C(=O)OCC(=O)NCCC1=CCCCC1	i
CCCCc1c(C)nc(N)[nH]c1=O	i
Cn1c(CN2CCCCC2)nc2cc(NC(=O)c3cccs3)ccc21	0.8
CC(C)n1c(SCC(=O)NCc2ccco2)nc2c1c(=O)n(C)c(=O)n2C	i
